Bioassay records deposited in PubChem by several laboratories.
B2AR ag: beta2AR agonists driving receptor internalization, primary screen, cell-based, FAP fluorogen, flow cytometry; Beta-2 adrenergic receptor (Homo sapiens), P07550; Am2.2-beta2AR cells; reference of the scale not given here; response, % (concentration not given with the values); 340,000 tested, 0.43% active;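 active = response above a set limit, near 3 SD of response in nonfluorescent compounds, cut at about 42% in these data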;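 also: stock transfer was 100 nL into about 11 µL; a reference agonist was the positive control; negative values mostly stem from fluorescent compounds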
Target sequence (P07550 whole entry, looked up): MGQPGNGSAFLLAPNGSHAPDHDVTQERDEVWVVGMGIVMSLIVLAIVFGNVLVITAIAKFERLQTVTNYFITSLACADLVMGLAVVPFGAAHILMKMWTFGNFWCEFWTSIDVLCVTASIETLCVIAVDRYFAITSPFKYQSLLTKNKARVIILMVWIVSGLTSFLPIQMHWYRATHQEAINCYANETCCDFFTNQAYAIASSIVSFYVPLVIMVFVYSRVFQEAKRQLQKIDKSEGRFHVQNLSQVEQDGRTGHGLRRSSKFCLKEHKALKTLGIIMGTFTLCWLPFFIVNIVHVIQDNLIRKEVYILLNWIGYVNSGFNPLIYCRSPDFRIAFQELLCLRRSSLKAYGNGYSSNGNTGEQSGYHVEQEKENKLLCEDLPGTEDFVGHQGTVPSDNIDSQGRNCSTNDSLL
HNF4A DNA FP: change in binding of human HNF4A to DNA, primary screen, biochemical, fluorescence polarization, FITC-DNA. Hepatocyte nuclear factor 4-alpha (Homo sapiens), P41235. 1 h. activity change, % at 10 µM. 360,000 tested, 0.3% active. AID 1224865, 2016; in the data active = activity change above about 30%, passing the limit was not always enough;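 also: controls were the assay level and a saturating level of protein; the project sought stronger binding though the title names inhibitors; some compounds called inactive have numbers as strong as hits; positive values seem to mean higher polarization but the record does not say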
LANA-H2A inh: blockers of LANA interaction with H2A/H2B – biochemical, FP readout, HTS, primary screen; 320,000 tested, 0.6% active; cell-free LANA-H2A/H2B peptide, fluorescence polarization; Protein LANA1 (Human herpesvirus 8 type P (isolate GK18)), Q9QR71; inhibition, % (no concentration beside the values); in the data active = inhibition mostly above about 10%, no sharp cut-off; inactive = mostly below about 6.7%;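 also: stock transfer was 7.5 nL into about 10 µL; 0% = median of vehicle wells and 100% = median of positive control wells; one replicate is shown; the record names a cut of 25% in any replicate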
A1 inh: caspase 3/7 activation in MEF A1-2A-BIM cells, primary screen, A1 inhibitor project, cell-based, luminescence, HTS. caspase activation, % (concentration not given with the values). 330,000 tested, 0.066% active. AID 2462, 2010. Caspase-Glo 3/7 luminescence, 3 h; percent of clofoctol response, vehicle zero;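 active = over half of replicate activation scores above 10%, or exactly half above 10 with the replicate mean above 10; inconclusive = replicate mean below 10 yet half the replicates above 10; inactive = over half of replicates below 10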;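 also: wells of about 30 µL received 50 nL stock; many hits fall short of the cut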
Vif TR-FRET: inhibitors of Vif binding to APOBEC3G peptide, primary screen, biochemical, TR-FRET, GST-Vif 1-94, biotin-A3G peptide, dose response retest (AID 1117319) | TR-FRET GST-Vif / biotin-A3G peptide binding; higher % means a stronger effect; test concentration not given here; strong numbers were not always called active | one-dose inhibition, %; IC50 in µM for titrated hits | 260,000 tested, 0.57% active;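 active = above the screen mean plus three standard deviations and confirmed in dose response; inconclusive = results disagree or hit not tested in dose response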;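 also: Vif residues 1-94 fused to GST binding biotinylated APOBEC3G peptide 110-148; 0% = full assay without inhibitor and 100% = GST in place of GST-Vif; retest series ran down from 100 µM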
Ecoli growth: E. coli growth inhibition, primary screen, OD600; Escherichia coli growth, 23 h; stronger effect = lower value; OD600 absorbance (no concentration beside the values); AID 1053175, 2014; 330,000 tested, 0.21% active;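 active = OD600 absorbance below the run mean of sample wells minus 3.6 SD, in any replicate, cut at about 0.56 in these data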;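 also: stock transfer was 300 nL into about 60 µL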
UCH37 inh: inhibitors of human UCH37 deubiquitinase, primary screen, biochemical, Ub-AMC cleavage, fluorescence. 330,000 tested, 0.33% active. inhibition, % (no concentration beside the values). purified proteasome/UCH37. Ubiquitin carboxyl-terminal hydrolase isozyme L5 (Homo sapiens), Q9Y5K5;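 active = mean of two replicates above 20%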;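 also: 0% = compound-free wells with enzyme and 100% = wells lacking proteasome; stock transfer was 100 nL into about 20 µL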
Target sequence (Q9Y5K5 whole entry, looked up): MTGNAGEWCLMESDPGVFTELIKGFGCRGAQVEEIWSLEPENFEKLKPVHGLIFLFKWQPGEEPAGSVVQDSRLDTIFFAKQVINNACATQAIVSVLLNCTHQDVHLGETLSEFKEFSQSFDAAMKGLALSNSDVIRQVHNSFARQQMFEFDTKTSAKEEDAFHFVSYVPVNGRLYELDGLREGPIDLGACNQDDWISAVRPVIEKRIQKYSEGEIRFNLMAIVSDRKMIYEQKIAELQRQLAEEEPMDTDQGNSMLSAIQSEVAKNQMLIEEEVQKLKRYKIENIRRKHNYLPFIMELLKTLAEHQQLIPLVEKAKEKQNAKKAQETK
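Test system – human UCH37 enzyme supplied as purified proteasome complex · Incubation – 30 min preincubation with enzyme, 25 min cleavage at room temperature · Detection – AMC fluorescence from Ub-AMC cleavage, excitation 355 nm, emission 460 nm · Benchmarks – no-proteasome wells (full inhibition) and compound-free wells (no inhibition)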
* marks the source's active call; other numbers are inactive results; ? = inconclusive; / = no result given; & = joins results of further samples.

SMILES | B2AR ag | HNF4A DNA FP | LANA-H2A inh | A1 inh | Vif TR-FRET | Ecoli growth | UCH37 inh
COc1ccc(N2C(=O)C(CC(=O)Nc3ccccc3)N(Cc3ccccn3)C2=S)cc1 (stereo not given) | -2 | -0.8 | -4.7 | 0.3 | 13% | 0.71 | 0.4
O=C(NC1CCCCC1)c1ccc(S(=O)(=O)N2CCOCC2)cc1 | -8 | 0.0 | -4.4 | -0.8 | 12% | 0.69 | 1.3
O=C(Nc1ccc(Cl)cc1)Nc1cccc2nsnc12 | -3 | 2.9 | 4.9 | -8.2 | -3% | 0.6 | -45
Nc1n[nH]c(C(F)(F)F)c1-c1ccccc1 | 5 | -1.6 | 3.7 | -0.9 | / | 0.68 | 1.3
CCOc1ccc2[nH]c(=O)c(CN(CCN3CCCC3)C(=S)Nc3ccccc3OC)cc2c1 | 6 | 4.4 | 2.9 | 1.4 | -1% | 0.64 | -80
CCN1CCN(C(=O)c2ccc3c(c2)c(C)c(C)n3Cc2ccccc2)CC1 | -1 | 3.9 | / | -0.4 | -5% | 0.71 | 3.3
Cc1ccc(S(=O)(=O)N2[C@@H](c3ccc(F)cc3)C(C(=O)O)=C[C@H]2CC2CCCC2)cc1 | 0 | -0.9 | 4.9 | 0.2 | 6% | 0.69 | 1.5
c1ccc(Cc2noc(CN3CCN(Cc4ccc5c(c4)OCO5)CC3)n2)cc1 | 1 | 2.7 | 6.1 | 0.1 | ? | 0.67 | 5.2
CNc1oc(-c2ccccc2Cl)nc1P(=O)(c1ccccc1)c1ccccc1 | 3 | 0.7 | 0.9 | 0.4 | / | 0.67 | -13
Cn1ncc(Cl)c1C(=O)Nc1cc(C(F)(F)F)ccc1F | -5 | -1.8 | 13 | -0.4 | ? | 0.73 | -0.6
CCOc1ccccc1C(=O)Nc1ccccc1C(N)=O | -13 | 0.1 | -2.5 | 0.1 | 24% | 0.71 | -0.6
CC(C)(C)C(C(Oc1ccc(Cl)cc1)n1cncn1)n1nnnc1C(c1cccc(Cl)c1)N1CCCCC1 (stereo not given) | / | / | -0.8 | -0.8 | 5% | / | /
CCOC(=O)C1CCN(S(=O)(=O)c2ccc3c(c2)N(C(C)=O)CC(C)S3)CC1 (stereo not given) | 50* | 4.4 | -4.1 | -1.2 | 4% | 0.68 | 4.8
Cc1ccccc1NC(=O)Cn1c(=O)n(C)c2ccccc21 | 1 | -4.0 | 0.2 | -0.2 | 11% | 0.7 | 0.1
CCOc1ccc(N(CC)C(=O)Cc2c(C(=O)O)n(C)c3ccccc23)cc1 | -8 | 1.8 | -2.9 | 3.1 | -4% | 0.64 | 2.9
CCc1ccc(-c2ccc(SCc3ccccn3)nn2)cc1 | 2 | 2.7 | 4.1 | -1.8 | -10% | 0.74 | 0.7
CCn1c(SCC(=O)O)nnc1-c1ccccc1 | -7 | -0.8 | 2.0 | -0.2 | 1% | 0.7 | 4.2
COc1ccc(OC)c(-c2c(=O)n(OCc3ccccc3Br)c3ccccc3[n+]2[O-])c1 | 14 | -2.8 | 4.3 | 0.5 | -6% | 0.69 | 2.5
COc1ccccc1COC(=O)CN1C(=O)NC2(CCCCC2C)C1=O (stereo not given) | -6 | -3.8 | / | / | -7% | 0.68 | 6.1
NC(=O)C1CCN(CC(=O)Nc2ccccc2Sc2ccc(Cl)cc2)CC1 | 5 | -1.6 | -2.4 | 0.3 | 22% | 0.65 | 0.3
O=C(CS(=O)CC(=O)N(CC(=O)NC1CCCC1)C1CCCCC1)Nc1ccc(F)cc1 (stereo not given) | -3 | -3.3 | -4.6 | 0.3 | 14%&-5% | 0.69 | 5.6
O=C(C1CC1)N1CCc2cc(Br)cc(S(=O)(=O)NCc3ccc4c(c3)OCO4)c21 | -7 | -3.1 | 0.5 | 0.0 | 26% | 0.72 | 1.0
CC1Cc2ccccc2N1C(=O)CSc1nnnn1C1CCCC1 (stereo not given) | -7 | -1.1 | 5.0 | 0.1 | 8% | 0.71 | 0.1
CCc1nc(Nc2ccccc2)c2nnn(Cc3ccccc3)c2n1 | -2 | 1.4 | -0.9 | -0.2 | / | 0.7 | -5.1

Ordered by number of heavy atoms (rising): part of the list above
SMILES | B2AR ag | HNF4A DNA FP | LANA-H2A inh | A1 inh | Vif TR-FRET | Ecoli growth | UCH37 inh
CCn1c(SCC(=O)O)nnc1-c1ccccc1 | -7 | -0.8 | 2.0 | -0.2 | 1% | 0.7 | 4.2
CC1Cc2ccccc2N1C(=O)CSc1nnnn1C1CCCC1 (stereo not given) | -7 | -1.1 | 5.0 | 0.1 | 8% | 0.71 | 0.1
O=C(C1CC1)N1CCc2cc(Br)cc(S(=O)(=O)NCc3ccc4c(c3)OCO4)c21 | -7 | -3.1 | 0.5 | 0.0 | 26% | 0.72 | 1.0
O=C(CS(=O)CC(=O)N(CC(=O)NC1CCCC1)C1CCCCC1)Nc1ccc(F)cc1 (stereo not given) | -3 | -3.3 | -4.6 | 0.3 | 14%&-5% | 0.69 | 5.6

Further results:
SMILES | B2AR ag | HNF4A DNA FP | LANA-H2A inh | A1 inh | Vif TR-FRET | Ecoli growth | UCH37 inh
COc1ccccc1N(CC(O)CN1CCC(C)CC1)S(=O)(=O)c1ccccc1 (stereo not given) | -2 | -0.2 | -0.9 | 1.3 | / | 0.7 | 5.1
Cn1c(=O)c2c(nc(NCc3cccnc3)n2Cc2ccc(Cl)cc2)n(C)c1=O | -11 | -6.6 | -9.4 | 0.1 | ? | 0.77 | -2.4
O=C(NCc1ccco1)c1ccc(S(=O)(=O)N2CCCc3ccccc32)cc1 | 4 | -4.3 | 4.6 | 0.6 | 1% | 0.67 | 1.7
Cc1ccc(C(=O)Nc2ccc(S(=O)(=O)N3CCOCC3)cc2)cc1Br | 10 | 1.6 | 7.2 | 0.6 | / | 0.65 | 5.6
Cc1ccc(C(=O)Nc2cccc3ccccc23)o1 | -1 | 5.6 | -2.4 | 0.1 | / | 0.64 | 5.7
COC(=O)c1ccc(CNC(=O)C2CCC(=O)N(C3CCCCCC3)C2)cc1 (stereo not given) | 3 | 2.2 | -0.1 | 0.6 | 9% | 0.68 | 2.4
O=C(Nc1cccc(Cl)c1)Nc1cccc(C(=O)O)c1 | -2 | -2.8 | -2.8 | -6.2 | -1% | 0.63 | 5.3
N#Cc1cc(C(=O)c2cc(Cl)ccc2O)cn(-c2ccccc2)c1=O | 0 | -0.5 | -0.8 | 0.0 | ? | 0.73 | 5.1
O=S(=O)(NCCCN1CCOCC1)c1ccc(F)c(Cl)c1 | -1 | 1.6 | -9.5 | 1.2 | 2% | 0.67 | -1.0
CN(C)c1cc(-c2ccc(F)cc2)oc(=O)c1Cl | 1 | -3.7 | 1.2 | 0.4 | 3% | 0.68 | 11
COCC(=O)Nc1ccc(N2CCOCC2)c(S(=O)(=O)Nc2ccccc2OC)c1 | 0 | -0.8 | 5.2 | -1.3 | / | 0.69 | 3.9
CCC(C)C(NC(=O)c1ccc(Cl)cc1Cl)C(=O)O (stereo not given) | -2 | -2.2 | -3.1 | 0.2 | 5% | 0.7 | 1.5
O=C(NNC(=O)c1ccco1)Nc1ccccc1 | -1 | -2.3 | -29 | 0.6 | 0% | 0.73 | 2.4
CCCN(CCC)CC(O)CN1C(=O)NC(C)(C)C1=O (stereo not given) | -2 | -0.4 | 2.9 | 0.5 | 28% | 0.68 | 4.3
COC(=O)c1cc(O)cc(OC)c1C(=O)c1c(O)cc(C)cc1O | -1 | 0.8 | 2.5 | 0.0 | / | 0.74 | 3.4
COc1ccc(NC(=O)c2ccc(S(=O)(=O)N(C)C)cc2)cc1OC | 16 | -0.6 | -1.2 | -0.2 | 5% | 0.62 | 2.0
CCCc1[nH]nc2c1C(c1cn[nH]c1-c1ccc(F)cc1)C(C#N)=C(N)O2 (stereo not given) | 13 | 4.5 | 5.0 | 0.6 | / | / | 0.6
COc1ccc(N2CC(C)(C)C2=O)cc1 | 5 | -2.1 | 2.4 | 1.1 | -7% | 0.61 | 0.4
COC(=O)c1ccc(CN2CCN(C3CCCCC3)C(CCO)C2)cc1 (stereo not given) | 3 | 0.0 | -4.6 | 0.4 | 32% | / | /
CCOc1ccccc1N(CC(=O)Nc1ccccc1C(=O)N1CCCC1)S(C)(=O)=O | -1 | 0.5 | 5.0 | -0.4 | / | 0.71 | -0.4
COc1ccc(C2=CSC3=NCCN23)cc1F | -3 | 6.3 | -8.2 | 0.1 | 8% | 0.63 | 0.2
COCCCn1c(Cc2csc(Nc3ccc(F)cc3)n2)nnc1SCC(N)=O | -8 | 2.4 | 2.7 | -0.6 | -5% | 0.7 | 0.6
COc1cc(CC(=O)OCC(=O)N2CC(C)CC(C)C2)cc(OC)c1OC (stereo not given) | -3 | 1.2 | 2.0 | -2.2 | 6% | 0.61 | 2.9
CC12CCC(C(=O)NC(c3ccccc3)c3ccccc3)(OC1=O)C2(C)C (stereo not given) | 0 | -0.3 | 5.3 | 0.0 | 3% | 0.64 | 5.7
Cc1ccc(C(=O)NCCc2ccc(F)cc2)s1 | -1 | 0.2 | 2.8 | -2.6 | 1% | 0.66 | 3.1
CCc1nnc(NC(=O)c2ccc(N(C)S(=O)(=O)c3ccccc3)cc2)s1 | 3 | -0.2 | 4.1 | 0.0 | 32% | 0.71 | 0.6
Cc1cccc(C)c1NC(=O)CN1CCN(C(=O)CN2C(=O)NC3(CCCCC3C)C2=O)CC1 (stereo not given) | 5 | 3.8 | / | / | 3% | 0.62 | 0.4
CCC(CO)Oc1cc(NCc2cccc(Cl)c2)c2ncn(C(C)C)c2c1 (stereo not given) | -7 | 9.5 | 3.8 | -0.1 | / | 0.71 | 1.8
CC(C)C(=O)Nc1ncc(Cc2cccc(Cl)c2)s1 | -12 | -1.4 | 2.0 | -0.8 | 2% | 0.68 | 1.3
CCCCn1c(N)c(N(CC(C)C)C(=O)c2ccc(OCC3CCCO3)cc2)c(=O)[nH]c1=O (stereo not given) | 0 | 3.3 | -2.2 | 0.3 | 5% | 0.68 | 2.6
O=C1c2ccccc2C(=O)N1CN(C(=O)COc1ccc(Cl)cc1Cl)c1cccc(F)c1 | -18 | -0.4 | 4.1 | 0.6 | / | 0.7 | 2.6
O=C(CSc1ccccc1)Nc1nnc(-c2ccco2)o1 | -1 | -5.5 | 0.2 | 0.7 | 5% | 0.67 | 1.8
Cc1c(C(=O)N2CCC(C)CC2)oc2ccc3c(c12)C(O)CC1(CCCCC1)O3 (stereo not given) | -6 | 5.2 | 3.3 | -0.6 | / | 0.68 | 1.3
COCCCn1c(=O)c2sccc2n(Cc2ccc(C)cc2)c1=O | -3 | -0.1 | 2.5 | -0.7 | / | 0.69 | 2.5
Cc1ccc(-n2nnc3ccccc3c2=O)cc1C | 1 | 2.7 | -3.0 | -5.4 | -2% | 0.77 | 6.5
Cc1csc2nc(=O)c3ccccc3n12 | 3 | -0.1 | / | / | -3% | / | /
CC1CCN(C(C)C(=O)Nc2cc(S(=O)(=O)N3CCCCC3)ccc2Cl)CC1 (stereo not given) | -4 | -1.9 | -1.1 | -0.4 | -1% | 0.7 | 5.6
O=C1CC[C@H](O)CCN1CCSc1ccc(Br)cc1 | 1 | 1.6 | 2.7 | 0.0 | / | / | 3.1
COCCn1c(C)cc(C(=O)CSc2ccc3ccccc3n2)c1C | -5 | -2.7 | 4.7 | 0.0 | 1% | 0.63 | 0.7
